# LANA-H2A inh = blockers of LANA interaction with H2A/H2B – biochemical, FP readout, HTS, primary screen; AID 2629, 2010; cell-free LANA-H2A/H2B peptide, fluorescence polarization; hit rate 0.6% among 320,000; inhibition, % (test concentration not listed); in the data active = inhibition mostly above about 10%, no sharp cut-off; inactive = mostly below about 6.7%;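 note: stock transfer was 7.5 nL into about 10 µL; 0% = median of vehicle wells and 100% = median of positive control wells; one replicate is shown; the record names a cut of 25% in any replicate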
# UCH37 inh = inhibitors of human UCH37 deubiquitinase, primary screen, biochemical, Ub-AMC cleavage, fluorescence; purified proteasome/UCH37; inhibition, % (no concentration beside the values); hit rate 0.33% among 330,000; AID 588478, 2011;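 active = mean of two replicates above 20%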;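 note: 0% = compound-free wells with enzyme and 100% = wells lacking proteasome; stock transfer was 100 nL into about 20 µL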
# Target sequence (Q9Y5K5 whole entry, looked up): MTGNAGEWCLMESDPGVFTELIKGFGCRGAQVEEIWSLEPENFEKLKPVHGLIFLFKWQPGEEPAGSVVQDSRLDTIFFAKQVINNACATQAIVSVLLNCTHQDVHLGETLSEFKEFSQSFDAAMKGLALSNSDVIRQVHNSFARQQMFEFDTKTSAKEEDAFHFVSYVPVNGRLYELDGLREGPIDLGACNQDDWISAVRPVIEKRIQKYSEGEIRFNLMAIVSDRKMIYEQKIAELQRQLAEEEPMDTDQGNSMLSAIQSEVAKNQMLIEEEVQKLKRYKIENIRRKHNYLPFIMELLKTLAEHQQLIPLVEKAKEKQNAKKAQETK
#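 Material: human UCH37 enzyme supplied as purified proteasome complex. Measure: % inhibition of Ub-AMC cleavage fluorescence. Medium: pH 7.4 Tris-HCl (50 mM) with ovalbumin, ATP-MgCl2, DTT. Times: 30 min preincubation with enzyme, 25 min cleavage at room temperature. Detection: AMC fluorescence intensity at 355/460 nm.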
# Beta apoptosis = inhibitors of cytokine-induced beta cell apoptosis, primary screen, luminescence; INS-1E cytokine-induced death, ATP luminescence, 48 h; percent of positive-control rescue, neutral wells zero; protection from apoptosis, % (test concentration not listed); hit rate 0.8% among 300,000;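 active = all replicates at 75% or more, or half of them and the mean; inconclusive = half reach 75% but not the mean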;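 note: 0% = cytokine-treated negative control wells and 100% = positive control rescue; higher means more ATP so stronger rescue from cytokine killing; wells of about 40 µL received 100 nL stock; the first replicate is given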
# T cruzi repl = inhibitors of intracellular T. cruzi growth, primary screen, luminescence, NIH3T3 host cells. T. cruzi beta-gal in NIH3T3, 90 h. hit rate 1.4% among 300,000. inhibition, % (no concentration beside the values);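 active = mean inhibition across valid replicates above about 55%, limit read from the data; inconclusive = mean below that limit but half or more replicates reach it; inactive = mean below it, under half of replicates reach it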;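 note: signal also drops with host cell toxicity which is not excluded here; 0% = plate median of DMSO wells and 100% = zero luminescence signal; higher percent means less beta-gal luminescence so fewer parasites; stock transfer was 50 nL into about 50 µL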
# Calb FLC = C. albicans growth inhibition with fluconazole, primary screen, CaCi-2 strain, Alamar Blue fluorescence; C. albicans CaCi-2 (fluconazole-resistant clinical isolate) + fluconazole, 48 h; growth inhibition, % (concentration not given with the values); hit rate 0.57% among 300,000; AID 1979, 2009;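 active = most replicates above 75%; inconclusive = exactly half above 75%; inactive = most below 75%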;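 note: all wells also contain fluconazole at 8 µg/ml as a sub-toxic cotreatment; 0% = median of DMSO wells and 100% = median of geldanamycin control wells; wells of about 8 µL received 7.5 nL stock; the first replicate is given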
# RanGTP-Imp inh = inhibitors of RanGTP-importin-beta interaction, primary screen, biochemical, FRET, CFP-Ran, YFP-importin-beta, homogeneous; Ran GTPase (GTP-bound) - importin-beta complex; cell-free CFP-Ran/YFP-importin-beta FRET ratio; inhibition, % (test concentration not listed); hit rate 1.1% among 300,000;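 active = most replicates above 15%; inconclusive = exactly half above 15%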;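 note: 0% = DMSO wells and 100% = Ran loaded with GDP instead of GTP; wells of about 40 µL received 100 nL stock; the first replicate is given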
# Beta2AR agonist = beta2AR agonists driving receptor internalization, primary screen, cell-based, FAP fluorogen, flow cytometry | Am2.2-beta2AR cells; reference of the scale not given here | response, % (test concentration not listed) | hit rate 0.43% among 340,000 | AID 504454, 2011;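 active = response above a set limit, near 3 SD of response in nonfluorescent compounds, cut at about 42% in these data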;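 note: stock transfer was 100 nL into about 11 µL; a reference agonist was the positive control; negative values mostly stem from fluorescent compounds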
# Target sequence (P07550 whole entry, looked up): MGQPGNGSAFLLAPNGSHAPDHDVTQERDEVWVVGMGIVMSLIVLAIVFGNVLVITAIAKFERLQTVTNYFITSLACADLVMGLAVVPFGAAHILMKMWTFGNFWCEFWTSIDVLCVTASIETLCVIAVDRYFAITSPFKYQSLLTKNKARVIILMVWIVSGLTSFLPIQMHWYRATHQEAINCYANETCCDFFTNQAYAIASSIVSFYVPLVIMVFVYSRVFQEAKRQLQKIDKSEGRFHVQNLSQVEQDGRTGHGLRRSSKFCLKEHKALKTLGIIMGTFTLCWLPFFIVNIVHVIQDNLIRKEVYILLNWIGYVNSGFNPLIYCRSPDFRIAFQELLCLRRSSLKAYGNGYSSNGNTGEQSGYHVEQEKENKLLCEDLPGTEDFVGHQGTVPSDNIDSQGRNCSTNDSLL
# Bfl-1 A1 inh = caspase 3/7 activation in MEF A1-2A-BIM cells, primary screen, A1 inhibitor project, cell-based, luminescence, HTS; hit rate 0.066% among 330,000; Caspase-Glo 3/7 luminescence, 3 h; percent of clofoctol response, vehicle zero; caspase activation, % (concentration not given with the values);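 active = over half of replicate activation scores above 10%, or exactly half above 10 with the replicate mean above 10; inconclusive = replicate mean below 10 yet half the replicates above 10; inactive = over half of replicates below 10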;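 note: wells of about 30 µL received 50 nL stock; many hits fall short of the cut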
# * = called active by the depositor; i = inactive; ? = inconclusive; nt = no result given. Rows are unselected. Share with any hit: about 4.3%.
SMILES,LANA-H2A inh,UCH37 inh,Beta apoptosis,T cruzi repl,Calb FLC,RanGTP-Imp inh,Beta2AR agonist,Bfl-1 A1 inh
Cc1c(N=Nc2ccc(N(C)C)cc2)c(=O)n(-c2ccccc2)n1C,nt,14.9,nt,2.3,-3.3,0.0,1.3,nt
CC(C)C[C@@H](CSc1ccc(Br)cc1)N1CCN(C)CCC1=O,-1.2,2.2,-3.7,4.4,4.4,-5.6,0.2,-0.5
COc1ccc(CCN2C(=O)CN(Cc3ccccc3)CC2=O)cc1OC,-0.7,1.6,-4.2,-0.9,3.4,-1.6,32.2,-0.1
CC(C)(C)c1ccc(OCC(=O)NCCN2CCOCC2)cc1,-1.3,3.2,-2.2,-2.7,-4.3,9.7,1.4,0.3
CC(Nc1c[nH]c(=O)[nH]c1=O)c1ccccc1 (stereo not given),2.3,0.9,nt,-14.2,0.4,1.8,-6.1,1.0
COc1ccc(CNC(=O)C2CCN(S(=O)(=O)N3CCCCC3)CC2)c(OC)c1,-0.1,1.5,-2.0,18.3,9.1,-2.4,1.0,-1.9
CC1(C)C2CC=C(/C=N/NC(=S)Nc3cccnc3)C1C2 (stereo not given),1.2,nt,-3.0,13.2,-41.4,-2.6,-1.9,1.4
Cc1ccccc1C(=O)N1CCN(c2ncnc3c2cnn3-c2ccccc2)CC1,3.4,4.2,-0.5,6.6,2.0,-0.5,-1.8,-0.7
COc1ccc(-n2nc3c(c2NC(=O)c2cc4ccccc4o2)CS(=O)(=O)C3)cc1,4.9,1.6,-0.2,12.4,0.3,2.5,-2.0,0.3
O=C(CCn1c(=O)sc2ccccc21)Nc1nccs1,7.2,-0.1,-1.0,2.1,5.6,-1.2,-20.5,0.0
COC(=O)CSC1=C(C#N)C(c2ccccc2F)CC(=O)N1 (stereo not given),-8.7,4.4,0.1,3.3,-3.1,-2.8,0.3,-0.7
Cc1ccc(N(C(=O)CNC(=O)c2ccco2)C(C(=O)NC2CCCC2)c2cccnc2)c(C)c1 (stereo not given),2.3,4.8,2.1,3.9,9.2,1.1,0.3,-0.5
COC(=O)CN1C(=O)COc2ccc(S(=O)(=O)N3CCOCC3)cc21,2.9,0.7,-3.0,-29.7,48.2,3.8,-1.6,0.4
O=C(CSc1nc(-c2ccccc2)c(-c2ccccc2)o1)Nc1nnc(-c2ccccc2)s1,-0.9,-2.7,-10.4,-19.5,8.3,-0.6,1.6,0.7
Cn1c(N2CCN(S(=O)(=O)c3ccc(F)cc3)CC2)nc2ccccc21,0.1,0.1,0.2,12.9,?,5.9,-5.0,0.5
O=C(Nc1ccc(N2CCN(C(=O)c3ccco3)CC2)cc1)c1ccc(F)cc1,3.2,0.7,4.1,13.3,5.1,-2.0,-0.5,1.4
O=C(c1ccc2c(=O)n3c(nc2c1)CCCCC3)N1CCN(c2ccccc2)CC1,0.2,1.1,-2.4,5.7,-1.4,1.1,-5.2,-0.1
CCC(C)c1ccc(NS(=O)(=O)c2c(C)[nH]c(=O)[nH]c2=O)cc1 (stereo not given),-1.0,3.8,0.8,-7.9,-2.5,-1.5,11.3,-0.3
Cc1cc(-c2ccc(Cl)cc2)c2cnn(C(C)C)c2n1,-0.6,-7.2,-7.4,11.8,-1.9,-1.0,4.3,-1.0
Cc1cc(NC(=O)CSc2nc(N)c(NC(=O)c3ccccc3)c(=O)[nH]2)no1,1.3,2.8,-4.7,-12.1,-18.3,?,33.1,0.6
O=C(/C=C/c1ccc(Cl)cc1)NC(=S)NN1CCCCC1c1cccnc1 (stereo not given),-4.8,nt,2.4,-23.6,9.5,-0.3,nt,-0.5
CCOC(=O)c1cc(OC(=O)c2ccccc2)n(-c2ccccc2)n1,-1.1,0.8,-10.2,-6.6,-4.7,0.5,1.1,0.0
CSc1cccc(NC(=O)N2CCc3ccc(NC(=O)c4ccccn4)cc3C2)c1,2.5,2.2,3.2,-11.8,-3.3,4.2,17.7,-4.7
CCC(C)(C)NC(=O)Cc1ccc(F)cc1,-2.1,3.6,-3.4,-2.4,?,5.2,10.5,-0.1
O=C(/C=C/Nc1ccc(F)c(Cl)c1)c1ccccc1,-2.5,-0.6,nt,22.8,-37.4,7.7,22.2,-2.3

# Other entries
SMILES,LANA-H2A inh,UCH37 inh,Beta apoptosis,T cruzi repl,Calb FLC,RanGTP-Imp inh,Beta2AR agonist,Bfl-1 A1 inh
Cc1nc2c(ncn2-c2ccccc2)c(=O)n1NC(=O)CN1CCCC1,-6.6,1.4,-3.1,1.8,-3.3,3.6,-3.4,0.7
Cc1c(C)c(C)c(S(=O)(=O)Nc2ccc3[nH]c(=O)[nH]c3c2)c(C)c1C,-3.9,0.1,-7.3,-18.5,1.1,?,10.8,-0.3
FC(F)(F)c1cc(-c2ccccc2)nc(N2CCCCCC2)n1,-4.0,-9.3,2.0,10.4,-1.5,-1.4,2.9,-0.8
O=C1CN(C(=O)COc2ccccc2)c2ccccc2N1,6.0,3.7,-0.9,-7.7,1.3,3.4,7.0,-1.0
CN(Cc1ccccc1)C(=O)CN1C(=O)c2ccc([N+](=O)[O-])cc2C1=O,-0.3,0.3,4.7,-3.8,21.5,3.5,-8.6,-0.1
O=c1[nH][nH]c(C(F)(F)F)c1C=NCc1cccc(Cl)c1,-6.1,3.3,-1.1,5.8,-3.5,?,6.9,-1.0
Cn1cccc1-c1cc(C(=O)N/N=C/c2cccc(O)c2)[nH]n1,-0.2,nt,12.7,-7.7,4.8,2.2,-2.2,-0.3
COc1ccccc1CCC(=O)Nc1cc(S(=O)(=O)N2CCCCC2)ccc1N1CCN(C)CC1,-0.6,5.0,5.6,51.0,-6.4,-3.4,12.1,-0.1
O=C(CCNC(=O)C1CCN(S(=O)(=O)c2ccc(F)cc2)CC1)NC1CC1,-2.3,3.0,3.8,8.3,-3.3,-0.4,0.3,1.1
O=C1CCC(C(=O)OCc2nnc(-c3ccc(Cl)cc3)o2)=NN1,5.2,0.1,4.1,-7.9,-2.9,-3.5,-5.3,0.0
N/C(=N\OC(=O)CCn1cccc(C(F)(F)F)c1=O)c1ccc(Cl)cc1,4.7,0.9,nt,14.6,-1.9,0.7,-8.6,-2.3
CCC(C)c1ccc(C2C3=C(Nc4nc(N)[nH]c(=O)c42)c2ccccc2C3=O)cc1 (stereo not given),3.0,7.6,0.8,14.5,4.4,-3.5,-0.7,-0.8
COc1ccc(CN(CC2CCCO2)C(=O)CN2C(=O)COc3ccccc32)cc1OC (stereo not given),0.6,3.4,-5.7,2.0,1.0,?,-8.2,-0.2
CCOc1ccccc1NC(=O)CSc1nc2ccccc2nc1N1CCCC1,3.4,0.6,14.3,4.0,-5.8,1.3,1.2,0.2
O=C(CN1CCN(C(c2ccccc2)c2ccccc2)CC1)N1CCN(c2ccccc2)CC1,-1.0,3.1,-2.0,13.6,-6.5,1.8,19.1,1.2
O=C(CCCCCNC(=O)c1ccccc1)N/N=C/c1ccco1,-1.0,nt,-5.5,-5.0,11.4,nt,4.0,0.2
CCC(COC)NC(=O)CCc1nnc(Cc2c[nH]c3ccccc23)o1 (stereo not given),-2.8,1.0,nt,5.5,-2.0,9.3,3.7,0.6
Cc1ccc(C)c(C(=O)COC(=O)Cn2[nH]c(=O)c3ccccc3c2=O)c1,6.3,1.1,-0.9,nt,nt,nt,-3.9,-0.2
CCCc1cc(=O)[nH]c(SCC(=O)Nc2ccc(OC)c(S(=O)(=O)N3CCCCC3)c2)n1,-5.1,0.7,-7.3,nt,nt,nt,0.3,-0.8
CCOc1ccc(CCNC(=O)c2c(C)noc2C)cc1OCC,3.7,2.9,5.3,-2.5,-2.6,-4.8,2.6,-0.7
Cc1nc(N2CCOCC2)c2c(C)c(C(=O)Nc3ccc(C(F)(F)F)cc3)sc2n1,-1.5,-10.8,13.3,68.0*,3.2,1.5,-2.4,0.5
COc1ccc(OC)c(NC(=O)c2ccc(Cl)cc2)c1,0.4,5.5,-4.0,10.3,-23.1,4.6,-5.0,1.9
Cn1cc(/C=N/n2cnc3scc(-c4ccc(Cl)cc4)c3c2=O)c2ccccc21,4.4,nt,36.2,41.2,-11.3,-3.1,24.7,1.6
NC(=S)NC(=O)c1ccccc1,0.0,0.4,-1.9,0.7,2.6,-0.4,-9.5,1.2
O=[N+]([O-])c1ccc(-[n+]2nc(-c3ccccc3)nn2-c2ccccc2)cc1,2.6,5.3,1.0,45.6,-6.1,-1.8,2.4,0.8

# Further structures:
SMILES,LANA-H2A inh,UCH37 inh,Beta apoptosis,T cruzi repl,Calb FLC,RanGTP-Imp inh,Beta2AR agonist,Bfl-1 A1 inh
Cc1nn(C(C)C(=O)Nc2sc3c(c2C#N)CCCC3)c(C)c1[N+](=O)[O-] (stereo not given),-0.7,2.6,nt,17.2,19.7,-0.2,-2.5,0.2
Nc1cc(N)nc(SCC(=O)Nc2ccc(Br)cc2Cl)n1,-2.1,nt,-3.0,-28.1,20.5,1.0,-11.9,-0.6
CSc1cc(-c2ccc(Cl)cc2)c(C(=O)NN)s1,1.9,-2.6,7.7,-10.1,18.1,3.6,-0.7,0.0
CC(C)N(C(=O)[C@H]1CC(CC(=O)NCCCn2ccnc2)C(=O)N2CCc3c([nH]c4ccccc34)[C@]12C)C(C)C (stereo not given in full),i,2.1,-2.3,nt,nt,nt,6.5,0.4
COc1c(Cl)cc(-c2noc(C)c2C(=O)NCc2ccc3c(c2)OCO3)cc1Cl,-1.4,3.5,4.5,3.4,-18.5,0.7,-3.5,0.5
CN(C)Cc1c(O)ccc2c(=O)c(-c3ccccc3Cl)coc12,-0.9,i,-3.7,-0.7,3.0,0.0,15.1,-0.2
C/C(=C1/SC(N2CCOCC2)=NC1=O)c1ccc(Cl)cc1,3.6,5.4,8.1,5.1,-0.2,-5.5,-9.2,0.9
CC1CCCN(C(=O)C2CCN(c3ncnc4c3nc3n4CCCCC3)CC2)C1 (stereo not given),4.3,9.1,2.6,-14.2,-1.1,2.8,-6.7,1.7
O=C(CCC(=O)N(CC(=O)NC1CCCCC1)Cc1cccs1)Nc1nccs1,5.5,0.3,4.9,4.7,-0.4,10.2,-4.4,0.1
O=c1[nH]c(SCc2ccc(Cl)cc2)nc2ccccc12,-0.5,0.5,-2.9,10.3,-8.2,?,-6.5,0.4
Cc1noc(NS(=O)(=O)c2ccc(N/C=C/C(=O)c3ccccc3)cc2)c1C,-3.7,18.2,-2.4,-13.3,-32.1,4.4,8.4,-6.9
CC1CCc2c(sc(NC(=O)C(=O)NCc3ccco3)c2C#N)C1 (stereo not given),-3.8,-1.2,3.9,8.9,-1.1,4.1,4.1,-0.3
COc1ccc(C2=CC(=O)C[C@H](c3ccc(OC)cc3)C2)cc1,4.8,-3.1,-8.0,nt,nt,nt,-4.8,-1.7

# Screening data: PubChem, several laboratories
